# fixLJ activator – activators of Burkholderia fixLJ two-component system, primary screen, B. multivorans, GFP reporter; hit rate 0.3% among 29,000; z-score (no concentration beside the values); AID 1918990, 2023; B. multivorans fixK-promoter GFP reporter, 18 h; hits give high values;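 active = replicate mean overnight rise in green fluorescent reporter signal, 3 or more SD over negative controls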;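 note: score is relative to vehicle wells of the plate; 300 nL library stock went into each well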
# The depositor's hits bear a star. These rows are one share of the data. The share of hits here may be higher or lower than overall.
Compound	fixLJ activator
COc1cc(-c2nc3cnccn3c2Nc2ccc(C(C)C)cc2)ccc1O	0.07
CCCn1cc(S(=O)(=O)c2ccc(OCC)cc2)c(=O)c2cc(C)ccc21	-2.4
Cc1ccc(NC(=O)CC2Nc3cccc4cccc(c34)NC2=O)cc1 (stereo not drawn)	-1.6
CC(C)CCNC(=O)c1cccc(Nc2nc3ccccc3n3nnnc23)c1	-1.1
Cc1c(CN(C)Cc2nc(-c3cccnc3)no2)cc(C#N)n1C	-0.75
Cc1c(NC(=O)c2cc(=O)c3ccccc3o2)c(=O)n(-c2ccccc2)n1C	-0.69
Cc1cn2c(=O)cc(COc3cccc(NC(=O)c4ccc(C(C)(C)C)cc4)c3)nc2s1	-0.58
NC(Cc1ccc(O)cc1)C(=O)NCCCc1nc2ccc(Cl)cc2[nH]1 (stereo not drawn)	-1.6
Cc1sc(-c2cc(C(F)(F)F)[nH]n2)cc1S(=O)(=O)N(C)C	1.8
Cc1cc2cc(C(=O)N3CCC4(CCC(=O)N(CCO)C4)CC3)ccc2o1	-0.31
CCOc1ccc(C(=O)c2cn(CC(=O)Nc3ccc(OC)cc3)c3cc4c(cc3c2=O)OCCO4)cc1	0.66
CC(=O)NC1CN(Cc2nc(-c3ccco3)no2)CC1C(C)C (stereo not drawn)	2
CCCC1(CNC(=O)CC2COc3ccc(C(=O)N(C)C)cc3N2C)CCC1 (stereo not drawn)	0.68
COc1ccc(NC(=O)CSc2nc3ccccc3nc2N2CCOCC2)c(OC)c1	-0.89
CCOC(=O)C1CCN(CCC(=O)Nc2ccccc2OC)CC1	0.52
Cc1nc(N)ncc1C(=O)N1CC(O)C(Cc2ccnc3ccccc23)C1 (stereo not drawn)	-0.92
CCCCCn1c(=O)[nH]c2cc(C(=O)Nc3cc(OC)cc(OC)c3)ccc2c1=O	-0.65
Cc1ccc(S(=O)(=O)Nc2ccc3c(c2)c(C(=O)OC(C)C)c(C)n3S(=O)(=O)c2ccc(C)cc2)cc1	0.33
Cc1ccc(Sc2c(C)nn(C(=O)COc3ccccc3Br)c2C)cc1	1.1
Cc1cccc(NC(=O)C2CCCN2S(=O)(=O)c2ccc3c(c2)n(C)c(=O)c(=O)n3C)c1 (stereo not drawn)	0.03
COc1cc(Br)c(/C=C(\C#N)c2nc3ccccc3[nH]2)cc1OC	-5.5
O=C(COc1ccccc1Cl)Nc1ccc(OCc2cc(=O)n3ccsc3n2)cc1	-1
CCOc1ccc(CCNC(=O)CN(c2ccc(C)cc2)S(=O)(=O)N(C)C)cc1OCC	-0.38
Cc1ccc(C)c(NC(=O)CSc2nc3ccccc3nc2N2CCOCC2)c1	-0.66
Nc1nc2ncc(CNc3ccc(C(=O)N[C@@H](CCC(=O)O)C(=O)O)cc3)nc2c(=O)[nH]1	-0.9
Cc1cc2nn(-c3ccc(F)cc3)nc2cc1NC(=O)c1cccc2ccccc12	-0.72
Cc1cc(Cl)ccc1OCC(=O)N(Cc1sccc1C)C1CCS(=O)(=O)C1 (stereo not drawn)	-3
Cc1ccc2[nH]cc(C(c3ccccc3)c3ccc(C)s3)c2c1 (stereo not drawn)	-0.99
Cc1ccc(OCCn2cc(C(=O)C3CCCCC3)c3ccccc32)cc1	0.81
Cc1ccc2nc(CN3CCN(c4ccc5nccn5n4)CC3)[nH]c2c1	-0.15
CC(C)Oc1cccc(-c2ccc(C(=O)N(CCC(N)=O)C(C)C)cc2)c1	-0.47
O=C(CCN1CCCCC1)NC1CCOCC1OCc1ccccc1 (stereo not drawn)	-0.14
CCc1cnc(C)nc1N1CCN(c2ccccc2C#N)CC1	-0.04
Cc1ccc(S(=O)(=O)c2nc(-c3cccc(Br)c3)oc2N2CCCCCC2)cc1	-2.5
O=C(Cn1ncc2c(=O)oc3ccccc3c21)Nc1cc(F)ccc1F	-1.1
CN(CCc1nc(C2CC2)nn1C1Cc2ccccc2C1)S(C)(=O)=O	-0.49
COC1CN(c2ncc(C(F)(F)F)cc2Cl)CC1Cc1cc(C)no1 (stereo not drawn)	-0.13
CCc1nn(CC(=O)Nc2ccc(NC(C)=O)cc2)c(=O)c2cc3sccc3n12	0.14
COCC(=O)N1CCc2ccc(S(=O)(=O)NCC3CCCO3)cc2C1 (stereo not drawn)	0.2
Cc1cccc(-c2nc(S(=O)(=O)c3ccc(F)cc3)c(N3CCN(c4ccccc4)CC3)o2)c1	1.5
CCOc1ccc(-c2cc(C)n3nc(C(=O)Nc4ccc(C)c(C)c4)cc3n2)cc1	-1.4
Cc1ccccc1-c1noc(CN2CCC3(CC2)NC(=O)CC3C(=O)O)n1 (stereo not drawn)	-0.13
CCn1c(=O)n(-c2ccc(F)c(Cl)c2)c(=O)c2sc3ccccc3c21	-2.1
Cc1cc2n(n1)CCN(C(=O)CCC(=O)Nc1nncs1)C2	1.3
O=C(CSc1nc(-c2ccccc2)[nH]c1-c1ccccc1)Nc1ccc2c(c1)OCO2	0.35
CCOc1ccc(-c2cc(CCCC(=O)NCCc3ccc(SC)cc3)no2)cc1	-0.41
CC(C)NC(=O)C1CCN(C(=O)c2cnn(-c3ccccc3)c2-n2cccc2)CC1	-2.7
Cc1ccc(C)c(N2CCN(C(=O)Cn3ncc4c(=O)oc5ccccc5c43)CC2)c1	-1.5
Cc1cccc2ncc(C(=O)N3CCCC4(CCc5cn[nH]c54)C3)c(=O)n12 (stereo not drawn)	-0.32
Clc1cccc(-c2noc3ncnc(NC4CCCCC4)c23)c1	0.23
Cc1ccc(-c2cc(C(F)(F)F)n3nc(-c4cccc(Br)c4)cc3n2)cc1	-3.5
Cc1oc2ncn(C)c(=O)c2c1C(=O)N1CCN(c2ccccc2F)CC1	-1.2
COC(=O)C1CCN(CC(=O)Nc2cc(C)c3c(=O)oc4ccccc4c3n2)CC1	-1.3
CCOc1ccc(CCNC(=O)c2cn(C)c3ccc(S(=O)(=O)N4CCCCC4)cc3c2=O)cc1OCC	0.79
CC(=O)N1CCc2cc(S(=O)(=O)NC(C(=O)Nc3ccc(C)cc3C)C(C)C)ccc21 (stereo not drawn)	-1.4
O=C1CN(CCNc2cc(-c3ccccc3F)nc3ccnn23)CCN1	-1
Cc1ccc(SC(C)C(=O)NCc2nc(Cc3ccccc3)no2)cc1 (stereo not drawn)	-1.5
COc1ccccc1CNc1ncnc2c1nc1n2CCCC1	-2.1
CCC(C)NC(=O)c1sc2nc(C)c(C(=O)Nc3ccc(C)cc3C)c(-c3ccccc3Cl)c2c1N (stereo not drawn)	-0.68
O=C(NCCSc1c(-c2ccc(F)cc2)[nH]c2ccccc12)c1ccc(S(=O)(=O)N2CCOCC2)cc1	2.1

# A second format for four compounds above.
> Clc1cccc(-c2noc3ncnc(NC4CCCCC4)c23)c1
  fixLJ activator = 0.23

> Cc1ccc(-c2cc(C(F)(F)F)n3nc(-c4cccc(Br)c4)cc3n2)cc1
  fixLJ activator = -3.5

> Cc1oc2ncn(C)c(=O)c2c1C(=O)N1CCN(c2ccccc2F)CC1
  fixLJ activator = -1.2

> COC(=O)C1CCN(CC(=O)Nc2cc(C)c3c(=O)oc4ccccc4c3n2)CC1
  fixLJ activator = -1.3

# New compounds follow
Compound	fixLJ activator
COc1cccc(C(=O)N2CC(=O)N(c3cccc(C)c3)CC2C)c1O (stereo not drawn)	2.2
COc1cccc(NC(=O)CSc2cc(C)c3ccccc3n2)c1	-1.1
COc1ccc(NC(=O)c2c(C)oc3ccc(O)c(CN4CCC(C)CC4)c23)cc1Cl	-2.3
Cc1cc(OCCn2c(CCNC(=O)C3CCCCC3)nc3ccccc32)ccc1Cl	-1.9
Cc1nccn1CCC(=O)NC1COCC1Cc1ccnc2ccccc12 (stereo not drawn)	1.1
Cc1ccc(NC(=O)c2c(NC(=O)Cc3ccccc3)sc3c2CCC3)cc1	-3.2
Cc1ccccc1OCC(=O)Nc1ccc2[nH]c(=O)sc2c1	0.02
COc1ccc(NC(=O)CSc2oc(-c3ccc(F)cc3)nc2S(=O)(=O)c2ccc(C)cc2)c(OC)c1	-1.4
Cc1ccccc1C(=O)NC1(C(F)(F)F)N=C(c2ccccc2)N(Cc2ccccc2)C1=O (stereo not drawn)	-1.9
COC(=O)c1cc2sc(C)cc2n1Cc1ccc(Br)cc1F	0.09
COc1cccc(-n2c(=O)c3c(C)c(C)sc3n(CC(=O)NCc3ccc(C)cc3)c2=O)c1	-1.6
COc1ccc(-c2noc(CSc3nnc(C)n3-c3ccc(C)cc3)n2)cc1	-2
COc1cc(OC)cc(C(=O)Nc2cc(-c3nc4ccccc4s3)ccc2OC)c1	-4
CCc1ccc(S(=O)(=O)c2nnn3c2nc(N(C)Cc2ccccc2)c2cc(Cl)ccc23)cc1	-0.1
Cc1ccc(NC(=O)c2c(C)oc3ccc(O)c(CN4CCOCC4)c23)cc1	-0.39
Cc1ccccc1NC(=O)c1sc2nc(-c3ccncc3)ccc2c1N	-4.2
COC(=O)c1ccc(NC(=O)C2(S(=O)(=O)c3ccc(C)cc3)CC2)cc1	1.2
COc1ccc(-c2nnn3c2nc(NCc2ccc(C)cc2)c2ccccc23)cc1	-1.6
COc1ccc(-n2c(SCC(=O)Nc3cc(C)cc(C)c3)nc3c(oc4ccccc43)c2=O)cc1	0.71
CC(=O)c1ccc(NC(=O)CN(C)S(=O)(=O)c2cnc[nH]2)cc1	-1.1
O=C(Nc1ccc(F)c(Cl)c1)N1CCN(C(=O)c2nsc3ccccc23)CC1	-1.1
COc1ccccc1N1CCN(Cc2cc(C#N)ccn2)C(C)C1 (stereo not drawn)	-0.34
Cc1ccc(OCC(=O)N(Cc2sccc2C)C2CCS(=O)(=O)C2)cc1 (stereo not drawn)	0.98
COc1cc2oc(=O)c(CC(=O)N3CCCCC3)c(C)c2cc1OC	-1.5
COc1ccc2nc(CNC(=O)CCc3nc4ccccc4s3)[nH]c2c1	-2.6
CC(C)c1ccc(CN2CCCn3nc(CNC(=O)C4CCC4)cc3C2)cc1	-1.4
Cc1ccc2ncccc2c1CN1CCC2(CC1)CN(CC(N)=O)CCO2	0.3
Cn1cc(CN(C(=O)NCCCc2ccccc2Cl)C2CC2)cn1	-0.9
COc1ccc(C(=O)N(Cc2ccco2)Cc2ccco2)cc1	-0.42
Cn1ncc2c(=O)[nH]c(CN3CCN(Cc4ccc(F)cc4)C(=O)C3)nc21	-0.56

# Quoted at random: 2 records from the list.
Compound	fixLJ activator
COc1cccc(C(=O)N2CC(=O)N(c3cccc(C)c3)CC2C)c1O (stereo not drawn)	2.2
Cn1ncc2c(=O)[nH]c(CN3CCN(Cc4ccc(F)cc4)C(=O)C3)nc21	-0.56

# Next part
Compound	fixLJ activator
O=C(c1cc[nH]c1)N1CCn2nc(C(O)c3ccccc3)cc2C1 (stereo not drawn)	0.51
CC(=O)c1c(C)n(-c2ccc(Cl)cc2)c2ccc(OC(=O)COc3ccccc3)cc12	0.54
COc1ccc(CCNC(=O)CCCCn2c(=O)c3ccccc3n(CC(=O)Nc3ccccc3C)c2=O)cc1OC	-1.4
Cc1cc(C(C#N)c2ccc(Cl)cc2)c(Cl)cc1NC(=O)c1cc(I)cc(I)c1O (stereo not drawn)	-3.7
CCOc1ccc(/C=C/c2nc(C#N)c(N3CCN(CC)CC3)o2)cc1	-2.8
COc1ccc(CCNc2nc3cc(OC)c(OC)cc3c3nc(-c4cccnc4)nn23)cc1OC	0.67
CCOC(=O)c1cc2c(=O)n3ccccc3nc2n(CCOC)c1=NC(=O)C(C)(C)Oc1ccc(Cl)cc1	-0.71
O=C(Nc1cc2[nH]c(=O)[nH]c2cc1N1CCCC1)C1CCC1	-0.98
COc1ccc(OC)c(S(=O)(=O)N2CCC[C@]3(CCCC3O)C2)c1 (stereo partly drawn)	-0.06
CCn1cc(C(=O)N2CCN(c3ccccc3OC)CC2)c(=O)c2cc(S(=O)(=O)N3CCC(C)CC3)ccc21	-1.5
CC1=C(C(=O)Nc2ccccc2)C(c2ccc(O)cc2)n2nc(-c3ccc(Cl)cc3)nc2N1 (stereo not drawn)	-3
CCOc1cc(/C=C(\C#N)C(=O)Nc2ccc(C)cc2)ccc1OCc1cc(=O)n2nc(CC)sc2n1	0.24
CCc1n[nH]c(CN2CCN(c3ccccc3OC)CC2C)n1 (stereo not drawn)	-1.3
Cc1ccc(CNC(=O)c2ccc(Cn3c(SCc4ccc(F)cc4)nc4cccnc43)cc2)o1	-0.71
CCN(Cc1nccn1C)C(=O)c1ccc(-c2cc3ccccc3o2)nc1	-0.97
Cc1ccc(S(=O)(=O)c2cn(CC(=O)Nc3ccc(Cl)cc3)c3ccc(F)cc3c2=O)cc1C	-1.4
COc1ccc2c(c1)CCc1c(C(=O)Nc3ccc(OC)cc3OC)noc1-2	2
N#C/C(=C\c1ccc(Cl)cc1Cl)c1nc(-c2cccc(Cl)c2)cs1	0.25
C=C(C)COc1ccccc1C(=O)NCCSc1ncn[nH]1	-0.56
O=C(CCCCn1c(=O)c2ccccc2n(Cc2ccc(Cl)cc2)c1=O)NCc1ccccc1Cl	0.33
COc1ccc(-n2ncc3c2ncn2nc(-c4ccc(OC)c(OC)c4)nc32)cc1	0.15
Cc1cccc(Cn2cnc3c(cnn3-c3ccc(Cl)cc3)c2=O)c1	-0.22
O=C(NCc1ccccc1Cl)c1ccc(NC(=O)N2CCSc3ccccc32)cc1	-3.1
COc1ccccc1-c1cc(C(=O)Nc2sc3c(c2C#N)CCCC3)no1	1.5
CCOc1ccccc1CNC(=O)c1ccc(NC(=O)N2CC(C)Sc3ccccc32)cc1 (stereo not drawn)	-2.6
